UCH37 DUB inh = inhibitors of human deubiquitinating enzyme UCH37; Q9Y5K5; purified proteasome/UCH37, Ub-AMC cleavage fluorescence; inhibition, % (no concentration beside the values); actives 0.33% (n = 330,000);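 active = mean of two replicates above 20%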;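 note: 0% = compound-free wells with enzyme and 100% = wells lacking proteasome; stock transfer was 100 nL into about 20 µL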
Target sequence (Q9Y5K5 whole entry, looked up): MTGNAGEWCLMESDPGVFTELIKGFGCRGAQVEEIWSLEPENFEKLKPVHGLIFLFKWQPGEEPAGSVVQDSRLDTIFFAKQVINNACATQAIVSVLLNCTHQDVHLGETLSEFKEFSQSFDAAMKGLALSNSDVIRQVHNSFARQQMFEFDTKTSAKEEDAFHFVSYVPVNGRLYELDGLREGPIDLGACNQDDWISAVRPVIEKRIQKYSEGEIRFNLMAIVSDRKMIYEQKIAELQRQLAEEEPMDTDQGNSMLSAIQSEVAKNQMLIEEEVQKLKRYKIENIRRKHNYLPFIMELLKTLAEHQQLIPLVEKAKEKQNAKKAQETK
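Material: human UCH37 enzyme supplied as purified proteasome complex. Measure: % inhibition of Ub-AMC cleavage fluorescence. Medium: pH 7.4 Tris-HCl (50 mM) with ovalbumin, ATP-MgCl2, DTT. Times: 30 min preincubation with enzyme, 25 min cleavage at room temperature. Detection: AMC fluorescence intensity at 355/460 nm.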
rRNA inh HTS = selective bacterial rRNA inhibition in E. coli; actives 1.6% (n = 350,000); GFP signal change (wild-type ribosome), % (test concentration not listed); E. coli WT GFP vs humanized-ribosome RFP mutants, fluorescence, 24 h; hits give low values; DMSO median 0, no signal -100; AID 720706;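 active = significant combined selectivity score with lowered wild-type GFP, culture density cut under 30%, mutant RFP and density less affected; inactive = any of these conditions unmet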; note: one replicate is shown; some compounds called inactive have numbers as strong as hits
HNF4A DNA FP = change in binding of human HNF4 alpha to DNA. P41235. HNF4a-FITC DNA binding, fluorescence polarization, 1 h. activity change, % at 10 µM. actives 0.3% (n = 360,000). AID 1224865; in the data active = activity change above about 30%, passing the limit was not always enough;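 note: controls were the assay level and a saturating level of protein; the project sought stronger binding though the title names inhibitors; some compounds called inactive have numbers as strong as hits; positive values seem to mean higher polarization but the record does not say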
Target sequence (P41235 whole entry, looked up): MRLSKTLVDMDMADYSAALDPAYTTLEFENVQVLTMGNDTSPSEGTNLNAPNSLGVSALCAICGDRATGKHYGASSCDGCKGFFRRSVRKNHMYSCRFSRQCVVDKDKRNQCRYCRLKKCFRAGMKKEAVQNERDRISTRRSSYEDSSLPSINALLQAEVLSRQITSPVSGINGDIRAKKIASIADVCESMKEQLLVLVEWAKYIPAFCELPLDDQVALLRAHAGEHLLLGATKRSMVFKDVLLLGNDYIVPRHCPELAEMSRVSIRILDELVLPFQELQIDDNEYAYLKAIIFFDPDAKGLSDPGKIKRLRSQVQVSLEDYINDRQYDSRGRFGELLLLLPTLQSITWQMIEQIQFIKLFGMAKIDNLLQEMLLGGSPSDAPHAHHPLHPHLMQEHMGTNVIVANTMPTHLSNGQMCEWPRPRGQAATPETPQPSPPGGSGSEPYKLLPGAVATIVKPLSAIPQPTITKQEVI
Ecoli growth = E. coli growth inhibition; OD600 absorbance (no concentration beside the values); actives 0.21% (n = 330,000); Escherichia coli growth, OD600, 23 h; hits give low values;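 active = OD600 absorbance below the run mean of sample wells minus 3.6 SD, in any replicate, cut at about 0.56 in these data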;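 note: stock transfer was 300 nL into about 60 µL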
ALR H2O2 inh = inhibitors of human sulfhydryl oxidase ALR | inhibition, % (concentration not given with the values) | purified ALR, DTT oxidation, H2O2 HRP-luminol luminescence | P55789 | AID 485317 | actives 3.8% (n = 290,000);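 active = mean and each replicate at 75% or more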;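 note: stock transfer was 7.5 nL into about 7.5 µL; 0% = neutral wells and 100% = wells with inactivated enzyme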
Target sequence (P55789 whole entry, looked up): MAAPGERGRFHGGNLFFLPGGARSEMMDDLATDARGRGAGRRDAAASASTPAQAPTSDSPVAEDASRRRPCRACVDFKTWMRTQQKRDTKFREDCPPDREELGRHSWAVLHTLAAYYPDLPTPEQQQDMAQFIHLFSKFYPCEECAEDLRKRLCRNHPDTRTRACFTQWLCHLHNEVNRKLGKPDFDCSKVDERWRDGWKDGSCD
FGF22 binding = shifts melting point of recombinant human FGF22. Q9HCT0. recombinant FGF22 thermal shift, SYPRO orange fluorescence; percent of sucrose octasulfate shift, DMSO zero. calls only at 9.99 µM. actives 1.5% (n = 340,000);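 active = melting point raised past a set limit in the mean and every replicate; three in four hits are not shown here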
Beta2AR agonist = human beta-2 adrenergic receptor agonism by FAP | P07550 | Am2.2-beta2AR cells, FAP receptor internalization, flow cytometry; reference of the scale not given here | response, % (test concentration not listed) | actives 0.43% (n = 340,000);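 active = response above a set limit, near 3 SD of response in nonfluorescent compounds, cut at about 42% in these data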;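 note: stock transfer was 100 nL into about 11 µL; a reference agonist was the positive control; negative values mostly stem from fluorescent compounds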
rRNA inh HTS OD600 = further read-out of rRNA inh HTS, marked with its call; OD600 change, %; measured here: OD600 growth;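 optical density of the mix in the first replicate; 0 = DMSO median and -100 = no signal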
rRNA inh HTS RFP = also measured in rRNA inh HTS; calls as there; RFP signal change, %; measured here: RFP humanized mutant strains;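 first replicate; 0 = DMSO median and -100 = no signal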
* marks the source's active call; other numbers are inactive results; i = inactive; · = not tested or not shown. A portion of the library; rates above refer to the full screens.

SMILES	UCH37 DUB inh	rRNA inh HTS	rRNA inh HTS OD600	rRNA inh HTS RFP	HNF4A DNA FP	Ecoli growth	ALR H2O2 inh	FGF22 binding	Beta2AR agonist
COc1ccccc1NC(=O)CN1CCC(n2nnc3cc(F)ccc32)CC1	3.3	·	·	·	3.7	0.72	-6	·	-6
COC(=O)CSc1nnc(-c2cccnc2)o1	2.9	·	·	·	-5.0	0.67	-18	·	11
CCN(CC)c1ccc(C(=O)NNC(=O)CNC(=O)c2ccco2)cc1	8.4	-1	3	-4.6	1.7	0.64	·	·	6
NC(=O)c1cc(NC(=O)CCCc2nc3ccccc3s2)cc(C(N)=O)c1	-0.2	2	1	0.6	-1.1	0.7	4	i	-8
Cc1cccc(C)c1NC(=O)C(c1cccs1)N(Cc1ccco1)C(=O)Cn1nnc2ccccc21 (stereo not drawn)	3.7	·	·	·	2.7	0.79	·	·	-3
Cc1ccccc1NC(=O)c1ccc(NS(=O)(=O)c2cc(C(C)(C)C)cc(C)c2C)cc1	1.7	·	·	·	3.5	0.72	·	·	13
O=C(Nc1ccc(Br)cc1)c1ccc(Br)c(S(=O)(=O)Nc2cccnc2)c1	-5.1	·	·	·	0.4	0.61	-3	·	9
COc1ccc(-n2nnc3c(=O)n(CC(=O)N4CCCc5ccccc54)cnc32)cc1	-2.2	-14	2	-18	-6.0	0.74	-7	i	8
Cc1cc(C(F)(F)F)nn1CC(=O)Nc1cccnc1	-0.4	·	·	·	-1.9	0.73	-16	·	7
O=C(Cc1ccccc1C(=O)O)Nc1cccc2ccccc12	-1.1	-2	-1	18	-3.6	0.66	-208	i	4
CC(C)Oc1ccc(C(=O)NC2(C(F)(F)F)N=C3SCCN3C2=O)cc1 (stereo not drawn)	-2.5	10	12	0.6	-1.9	0.66	1	·	13
O=C(Nc1cccc2ccccc12)c1csc(COCCO)n1	·	14	16	4.5	-0.3	·	·	i	·
COc1cc(C(=O)Nc2ccccc2N2CCOCC2)ccc1OCC(=O)N1CCOCC1	-0.6	2	6	1.5	4.6	0.63	-18	i	-1
Cc1cc(OCC(=O)N(C)C2CCCCC2)ccc1Cl	2.7	-31	-52	-12	-1.8	0.64	-20	i	-2
CC(CCc1ccccc1)NC(=O)CC(C)c1ccccc1 (stereo not drawn)	0.4	-11	-14	-2.2	-2.7	0.68	-34	i	0
CCOC(=O)NCN1C(=O)C2C3C=CC(C3)C2C1=O (stereo not drawn)	4.3	·	·	·	-0.1	0.69	-19	·	1
Cc1cccc2cc(CN(Cc3ccccc3)C(=O)c3cccc(F)c3)c(Cl)nc12	2.9	·	·	·	-1.7	0.73	0	·	3
Clc1ccc(-c2nnc(CSc3nnc(-c4cccs4)n3Cc3ccccc3)o2)cc1	1.3	-19	-26	0.8	1.3	0.71	-3	i	-14
c1ccc(-c2ccc(SCc3cccnc3)nn2)nc1	1.5	-7	-9	0.6	-0.6	0.64	-4	i	-8
Cc1cccc(N2CC(C(=O)Nc3nnc(SCCC4OCCO4)s3)CC2=O)c1 (stereo not drawn)	3.2	·	·	·	-27	0.72	-8	i	6
COc1ccccc1N1CCN(C(=S)Nc2ccc3nc(N4CCOCC4)cc(C)c3c2)CC1	-5.8	·	·	·	2.9	0.7	3	·	0
N#Cc1c2ccccc2nc2ccccc12	-117	-21	-33	-9.6	-2.8	0.61	-26	i	-6
CCCCCCCCN1C(=O)[C@H](CC(=O)N2CCN(C(=O)c3ccco3)CC2)C[C@@]2(C(=O)OCC)CCCC=C12	·	-32	-41	4.6	-0.2	·	·	i	·
Cn1c(=O)c2cc(S(=O)(=O)NCCC(=O)NCCc3ccc(Cl)cc3)ccc2n(C)c1=O	0.6	·	·	·	-1.7	0.69	98*	·	0
Cc1ccc(CN2CCC(N3CC(C)OC(C)C3)CC2)cc1 (stereo not drawn)	2.3	4	-2	-6.5	2.4	0.66	8	i	4

A few values from the results shown.
COc1ccccc1NC(=O)CN1CCC(n2nnc3cc(F)ccc32)CC1 – UCH37 DUB inh = 3.3
O=C(Cc1ccccc1C(=O)O)Nc1cccc2ccccc12 – rRNA inh HTS = -2

New compounds follow.
SMILES	UCH37 DUB inh	rRNA inh HTS	rRNA inh HTS OD600	rRNA inh HTS RFP	HNF4A DNA FP	Ecoli growth	ALR H2O2 inh	FGF22 binding	Beta2AR agonist
COc1ccccc1CNC(=O)COC(=O)Cc1ccc(Cl)cc1	1.1	0	2	0.1	0.7	0.65	-9	i	-9
COc1ccc2oc(C(=O)OCC(=O)N(C)CC(=O)Nc3ccc(F)cc3)c(C)c2c1	-35	4	1	-0.6	-1.1	0.67	1	i	-5
CCc1ccc(C(=O)NNC(=O)c2ccc(OCC(=O)N3CCOCC3)c(OC)c2)cc1	3.9	4	0	-1.1	1.9	0.69	·	i	-2
CCCCC/C(=N\NC(=O)Nc1ccccc1)c1ccccc1	·	-2	-13	2.2	-2.3	·	0	·	6
Cc1nc(N2CCOCC2)c2oc3ccccc3c2n1	0.9	·	·	·	1.3	0.65	-15	·	-4
CNc1cc(-c2ccc(OC)nc2)ncn1	·	9	18	-0.8	-3.1	·	·	i	·
N#C/C(=C\c1ccc(F)c(F)c1)C(=O)NC1CCCCC1	3.5	12	6	-8.5	-5.1	0.7	98*	i	4
Cc1cc(C(=O)CCC(=O)Nc2cccc(F)c2)c(C)s1	·	-10	-33	-3.5	-5.2	·	·	i	·
C/C(=N\Nc1ncc(Cl)cc1Cl)c1ccc(N2CCOCC2)cc1	·	0	5	-0.5	-2.7	·	38	i	-1
CCOc1ccc(NC(=S)NCCCN2CCOCC2)cc1	-2.4	16	14	-0.8	-1.1	0.68	1	i	-3
O=C(c1ccc([N+](=O)[O-])cc1)N1CCSC1c1cccc(Cl)c1 (stereo not drawn)	5.0	0	8	-4.0	0.3	0.66	-2	i	5
CSc1nc(Cl)cc(N(CCO)CCO)n1	4.2	·	·	·	-0.9	0.73	-12	·	-7
CCC1=C(OC(=O)N(CC)CC)N2C(=O)OC(=NCCc3c[nH]c4ccccc34)[C@]2(Cc2ccccc2)[C@H]2C1=CC[C@H]1C(=O)N(CC(=O)OC)C(=O)[C@H]12	2.7	8	10	-12	5.5	0.82	-36	i	-2
COC(=O)C1=C(O)CSC1=Nc1cccc(C(F)(F)F)c1	2.2	·	·	·	0.5	0.65	8	·	4
CCOC(=O)c1c(C)n(-c2ccc(C)cc2)c2c(CC(C)=O)c(Br)c(OC)c(O)c12	1.5	·	·	·	0.7	0.71	-2	·	-1
Cn1c(=O)cc(OCCCC(=O)NCCCN2CCN(Cc3ccccc3)CC2)c2ccccc21	-1.7	·	·	·	-2.9	0.71	-4	·	-1
CCn1c(CSCc2ccc(Cl)cc2)n[nH]c1=S	2.1	-19	-50	-8.7	0.1	0.65	-3	i	6
COC(=O)c1ccccc1NC(=O)CSc1nnc(-c2cccc(NC(C)=O)c2)n1C	-2.8	·	·	·	-2.6	0.73	-1	·	3
O=C(c1c(F)cccc1F)N1CCC(O)(c2ccc(F)cc2)CC1	1.4	0	5	2.3	0.4	0.67	0	i	8
CCCCn1c(N)c(N(CC)C(=O)c2cccc(C)c2)c(=O)[nH]c1=O	0.0	11	5	0.1	-0.1	0.71	-7	i	7
Cc1cc(NC(=O)CCS(=O)(=O)c2nc(-c3ccccc3)cc(C(F)(F)F)n2)no1	3.0	·	·	·	2.3	0.73	20	·	30
Cc1cccc(NC(=O)c2sc(Cl)nc2-c2ccccc2)c1	2.1	·	·	·	2.1	0.71	-1	·	12
COc1cc(/C=C/C(=O)C2C(=O)C=C(C)OC2=O)cc(OC)c1O (stereo not drawn)	3.5	·	·	·	-4.5	0.73	99*	·	12
Cc1nc([N+](=O)[O-])cn1Cc1cccc([N+](=O)[O-])c1	5.9	3	14	-0.2	0.6	0.66	-10	i	5
N#Cc1ccc(CSc2ncnc3c2cnn3Cc2ccccc2)cc1	-1.5	·	·	·	2.0	0.77	-4	·	12
(continued)
SMILES	UCH37 DUB inh	rRNA inh HTS	rRNA inh HTS OD600	rRNA inh HTS RFP	HNF4A DNA FP	Ecoli growth	ALR H2O2 inh	FGF22 binding	Beta2AR agonist
CC(=O)c1cccc(NC(=O)CC2S/C(=N/N=C3CCCCCC3)NC2=O)c1 (stereo not drawn)	1.2	-10	-9	3.3	-0.3	0.57	6	i	0
O=C1CC(Nc2ccc(N3CCOCC3)cc2)C(=O)N1C1CCCCC1 (stereo not drawn)	-0.7	·	·	·	1.8	0.73	99*	·	-5
Cc1cnc(CNC(=O)c2ccc3nc([C@@H]4O[C@H](CO)[C@H](O)[C@H](O)[C@H]4O)[nH]c3c2)cn1	·	13	17	1.7	-3.7	·	·	i	·
O=C(NC(=S)Nc1cccnc1)c1cccc(Cl)c1	·	17	18	-0.4	1.5	·	·	i	·
CSC(=NC#N)N1CCN(c2c(C)cccc2C)CC1	-1.3	2	9	-1.5	-0.3	0.67	-3	i	-6
Cc1cc(C)n(CCc2nc(-c3ccc(C(C)(C)C)cc3)cs2)n1	4.9	-26	-42	26	0.1	0.69	6	i	-45
NC(=O)c1ccc(NC(=O)COC(=O)c2c3c(nc4ccccc24)/C(=C\c2cccs2)CCC3)cc1	-5.6	-2	-6	1.5	7.4	0.69	-2	i	12
Cc1ccc(C(=O)Nc2nc(=O)n(C(=O)c3ccccc3C)s2)cc1	6.2	·	·	·	1.2	0.73	·	·	4
O=C1CN(C(=O)c2ccc(F)c(S(=O)(=O)N3CCOCC3)c2)c2ccccc2N1	1.9	3	11	-1.2	-0.3	0.72	-15	i	-2
O=C1N=c2ccccc2=C1c1sc(=S)n(CC2CCCO2)c1O (stereo not drawn)	-6.9	·	·	·	4.2	0.78	-1	·	-18
Cc1nc(NC(=O)c2ccc(OCC(C)C)cc2)sc1Cc1ccc2c(c1)OCO2	-4.5	-6	-7	-0.8	-4.4	0.68	-7	i	4
Cc1ccc(NC(=O)C2CCCN(S(=O)(=O)c3ccc(-n4cnnn4)cc3)C2)cc1 (stereo not drawn)	2.7	0	2	-1.0	3.3	0.7	-2	i	8
CC(C)(C)c1ccc(-n2ncc3c2CCCC3NC(=O)CCC2=NNC(=O)CC2)cc1 (stereo not drawn)	·	-4	-18	0.1	-3.3	·	·	i	·
CC(C)C(NS(=O)(=O)c1ccc2c(c1)OCCCO2)C(=O)O (stereo not drawn)	4.5	16	11	1.2	-3.5	0.69	-1	i	1
O=C(NCC(c1cccs1)N1CCOCC1)c1ccc([N+](=O)[O-])cc1 (stereo not drawn)	-0.4	·	·	·	3.5	·	-22	·	5
CSCCC(C(=O)OC1CCOC1=O)N1C(=O)c2ccccc2C1=O (stereo not drawn)	2.2	4	-4	0.0	-0.8	0.69	-3	i	8
CC(=O)c1sc(-c2ccc(Cl)cc2)nc1C	0.2	-2	-7	-5.8	-1.7	0.69	·	i	-3
O=S(=O)(c1ccc(Nc2ccc(-c3ccc4c(c3)OCCO4)nn2)cc1)N1CCCC1	2.9	-6	-11	7.7	-0.4	0.68	-5	i	13
O=C(CCN1CCN(S(=O)(=O)c2cccc([N+](=O)[O-])c2)CC1)Nc1ccccc1F	-0.6	6	7	-4.1	-1.7	0.71	-3	i	1

Compound profiles (already shown):
Record of `Cc1nc(NC(=O)c2ccc(OCC(C)C)cc2)sc1Cc1ccc2c(c1)OCO2` → UCH37 DUB inh = -4.5; rRNA inh HTS = -6; rRNA inh HTS OD600 = -7; rRNA inh HTS RFP = -0.8; HNF4A DNA FP = -4.4; Ecoli growth = 0.68; ALR H2O2 inh = -7; FGF22 binding = i; Beta2AR agonist = 4
Record of `O=S(=O)(c1ccc(Nc2ccc(-c3ccc4c(c3)OCCO4)nn2)cc1)N1CCCC1` → UCH37 DUB inh = 2.9; rRNA inh HTS = -6; rRNA inh HTS OD600 = -11; rRNA inh HTS RFP = 7.7; HNF4A DNA FP = -0.4; Ecoli growth = 0.68; ALR H2O2 inh = -5; FGF22 binding = i; Beta2AR agonist = 13

Source: PubChem BioAssay
